Source: PubChem
TRPML1 ag – human mucolipin-1 channel agonism; Q9GZU1; TRPML1-expressing cells, Ca2+ dye fluorescence, FDSS; host cell line not named in the record; reference of the full effect not given here; activation, % (concentration not given with the values); 410,000 tested, 0.12% active; AID 624414; in the data active = activation above about 50%; inconclusive = about 30% to 50%; inactive = below about 30%; further: 0% is about no effect; the text of the record puts the active cut at 80%
Target sequence (Q9GZU1 whole entry, looked up): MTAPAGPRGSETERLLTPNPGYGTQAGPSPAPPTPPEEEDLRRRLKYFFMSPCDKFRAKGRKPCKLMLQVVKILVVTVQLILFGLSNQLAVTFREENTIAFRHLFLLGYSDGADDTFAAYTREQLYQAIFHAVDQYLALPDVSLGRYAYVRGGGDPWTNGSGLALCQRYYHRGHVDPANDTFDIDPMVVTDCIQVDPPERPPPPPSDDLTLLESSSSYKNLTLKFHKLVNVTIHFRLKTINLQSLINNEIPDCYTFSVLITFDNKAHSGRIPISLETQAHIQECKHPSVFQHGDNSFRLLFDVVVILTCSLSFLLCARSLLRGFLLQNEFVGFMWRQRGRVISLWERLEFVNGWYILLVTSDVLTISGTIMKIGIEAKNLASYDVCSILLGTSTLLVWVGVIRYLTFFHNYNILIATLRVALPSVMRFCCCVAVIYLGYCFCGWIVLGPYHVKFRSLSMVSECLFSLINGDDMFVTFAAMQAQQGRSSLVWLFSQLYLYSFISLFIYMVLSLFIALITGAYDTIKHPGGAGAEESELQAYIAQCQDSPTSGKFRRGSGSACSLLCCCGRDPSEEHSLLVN
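Kinetic FDSS Ca2+ read in Tet-induced TRPML1-DL cells (ABD Ca8 dye plus quencher, 45-90 min RT loading): baseline, then compound, then 110 s agonist window; EC80 agonist 54-4 at 4uM final added afterwards for a 110 s antagonist window.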
PINK1 modulator – modulators of PINK1 expression | PINK1 immunofluorescence, high-content cytometry, 24 h | Potency, µM (highest dose often 76.6 µM), for the others: at the highest dose activation (PINK1 increase), usual class: activators | 410,000 tested, 0.2% active | AID 624263; active = well fitted activation curve with a large enough effect; inconclusive = small, poorly fitted or top-dose-only effect; inactive = flat fitted curve, though single readings scatter; cell line not stated here;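 further: potency means the concentration at half of the fitted maximal effect; % of control where 0% means no effect; nearly all actives have a fitted effect of over 65% in size; a mitochondrial uncoupler was the plate control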
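Measures PINK1 amount and localization on or inside mitochondria by immunofluorescence. Stable cells get compounds at 5 concentrations for 24 hours before fixation and staining; CCCP controls included.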
Starred values were filed as active, the others as inactive; ? = inconclusive. An excerpt (hit frequency here may not be typical).

Order of values – TRPML1 ag	PINK1 modulator
1	Cc1ccc(NC(=O)C2CCN(S(=O)(=O)c3ccc4c(c3)CCCN4C(=O)C3CCC3)CC2)cc1
 : 1.8	5.0%
2	CC(=O)N1CCCc2cc(S(=O)(=O)N(C)CC(=O)Nc3ccc(C(C)C)cc3)ccc21
 : -0.2	0.2%
3	COc1cc(C2c3c(-c4ccc(C)cc4)n[nH]c3C(=O)N2c2ccc(F)cc2)ccc1O (stereo not drawn)
 : 0.5	1.5%
4	CCN(CC)C(=O)Cn1c(=O)n(Cc2ccc(C(=O)NCCc3ccc(OC)c(OC)c3)cc2)c(=O)c2ccccc21
 : -0.4	1.2%
5	Cc1cccc(OCCn2c(SCC(=O)O)nc3ccccc32)c1
 : 0.6	1.6%
6	O=C(NCCSc1c(-c2ccc(Cl)cc2)[nH]c2ccccc12)c1ccc(S(=O)(=O)N2CCOCC2)cc1
 : 0.0	1.9%
7	CCN(CC)C(=O)C1CCCN(c2ncnc3c2c(-c2ccccc2)cn3-c2cccc(C)c2)C1 (stereo not drawn)
 : 10	5.5%
8	CCc1nn(CC(=O)N2CCN(c3cccc(C(F)(F)F)c3)CC2)c(=O)c2cc3occc3n12
 : -0.3	0.5%
9	CCOC(=O)c1noc2ncn(CC(=O)Nc3cccc(C(F)(F)F)c3)c(=O)c12
 : 1.1	-0.2%
10	COc1ccccc1Cn1c(CNS(=O)(=O)c2ccc3c(c2)CCCC3)nc2cccnc21
 : 1.6	-0.5%
11	O=C(CN1C(=O)C2(SCC(=O)N2c2cccc(F)c2)c2ccccc21)NCCc1ccccc1 (stereo not drawn)
 : 1.8	-2.3%
12	Cn1c(C(=O)NCc2cccc(F)c2)cc2cc(S(=O)(=O)N3CCCCC3)ccc21
 : -0.1	2.8%
13	CCNC(=O)c1ccc2nc(-c3ccccc3)c(-c3ccccc3)nc2c1
 : -0.7	2.4%
14	Cc1ccc(Cl)cc1N1CCN(C(=O)COc2cc(=O)n(C)c3ccccc23)CC1
 : 0.7	2.6%
15	Cc1ccc(Nc2ccc(N3CCN(C(=O)c4cccc([N+](=O)[O-])c4)CC3)nn2)cc1
 : 6.4	1.0%
16	O=C1C(c2ccc(F)cc2)N(CCc2ccccc2)C(=O)CN1C1CCCCCC1 (stereo not drawn)
 : 0.2	-0.1%
17	CCN(CC)CCNC(=O)c1ccc2c(c1)NC(=O)C(CS(=O)(=O)Cc1cccc(Br)c1)N2 (stereo not drawn)
 : -0.3	0.6%
18	Cc1ccc(Cl)cc1N1CCN(C(=O)c2cc3c(=O)oc4ccccc4c3s2)CC1
 : 1.1	0.2%
19	CC(=O)Nc1cccc(NC(=O)C(=O)NCCc2csc3nc(-c4ccccc4F)nn23)c1
 : 0.7	2.0%
20	COc1ccc2c(c1)c1c(c(=O)n(-c3ccc(OC)c(OC)c3)c(=O)n1Cc1ccccc1C)n2C
 : 1.4	0.4%
21	Cc1oc(-c2cccc(Br)c2)nc1CN1CCC(C(=O)NCCc2ccc(Cl)cc2)CC1
 : 1.4	0.5%
22	CCC(C(=O)OCc1cc(=O)n2nc(CCOC)sc2n1)c1ccccc1 (stereo not drawn)
 : 0.9	0.6%
23	COCCNC(=O)Cn1c(=O)n(CCCCCC(=O)NCc2ccc3c(c2)OCO3)c(=O)c2sccc21
 : 1.0	0.7%
24	CCCSc1nnc2c(n1)OC(CC)N(C(C)=O)c1ccccc1-2 (stereo not drawn)
 : -1.1	2.9%
25	COc1ccc(N(Cc2cccs2)C(=O)Nc2ccccc2)cc1
 : 0.9	0.1%
26	COc1ccc(CCNC(=O)C(C)n2nc(C)c3sc4ccccc4c3c2=O)c(OC)c1 (stereo not drawn)
 : 3.1	0.4%
27	CCc1nn(CC(=O)N2CCN(c3ccc(OC)cc3)CC2)c(=O)c2cc3sccc3n12
 : -0.4	-0.6%
28	CC(=O)c1ccc(N2CCN(c3nc4c(S(=O)(=O)c5ccccc5)nnn4c4ccc(Cl)cc34)CC2)cc1
 : -0.1	-1.6%
29	Cc1ccc(Cl)cc1N1CCN(C(=O)C2CCC(CNS(=O)(=O)c3cccs3)CC2)CC1 (stereo not drawn)
 : 3.6	1.8%
30	COCCNC(=O)CN1C(=O)CCn2nc(-c3cn(C)c4ccccc34)cc21
 : 0.5	1.2%
31	CCN(CC)C(=O)Cn1c(=O)n(CCCCCC(=O)NCc2ccc3c(c2)OCO3)c(=O)c2sccc21
 : 1.5	0.3%
32	COc1ccc(-n2c(=O)c3c(c4cc(OC)ccc4n3C)n(C)c2=O)cc1
 : -0.1	2.9%
33	COc1ccc(CCNS(=O)(=O)c2ccc3c(c2)CC(C)N3C(=O)C2CCC2)cc1OC (stereo not drawn)
 : 1.9	2.4%
34	C=Cc1ccc(Cn2c(=O)cc(C)c3c(C)nn(-c4ccccc4)c32)cc1
 : 2.3	0.0%
35	CNC(=O)c1sc2ncccc2c1-n1cccc1
 : -0.6	0.9%
36	Cc1ccc(NC(=O)N2CCC(CN3CCC(C)CC3)CC2)cc1F
 : -0.4	0.7%
37	COc1ccc(C(=O)CC2(O)C(=O)N(CCc3ccccc3)c3ccc(Br)cc32)cc1OC (stereo not drawn)
 : 2.2	2.5%
38	O=C(Cn1c(=O)ccc2cc(S(=O)(=O)N3CCCC3)ccc21)Nc1ccccc1
 : -0.2	-1.3%
39	CCOc1ccc(S(=O)(=O)Nc2ccc(-c3ccc(OC)nn3)cc2)cc1
 : 2.5	-0.1%
40	Cc1ccc(-c2cc(C(F)(F)F)n3nc(C(=O)NCC45CC6CC(CC(C6)C4)C5)cc3n2)cc1
 : -0.4	0.8%
41	CCc1cccc(NC(=O)CN2C(=O)CCc3cc(S(=O)(=O)N4CCOCC4)ccc32)c1
 : -0.6	-0.1%
42	COC(=O)C(C)NC(=O)N1CCN(c2nnc(C)c3c(C)n(-c4ccc(Cl)cc4)nc23)CC1 (stereo not drawn)
 : 1.7	2.3%
43	COc1ccc(CNC(=O)c2cnc3sc4cc(OC)ccc4n3c2=O)cc1
 : -0.3	-0.2%
44	Cc1oc2c(c1C(=O)Nc1ccc(Cl)cc1F)C1=NCCN1C=N2
 : -0.2	-1.1%
45	Cc1ccccc1Nc1nnc(-c2ccc(C)c(S(=O)(=O)NCC3CCCO3)c2)c2ccccc12 (stereo not drawn)
 : -1.0	0.7%
46	CCOC(=O)C1=C(CN(C)Cc2ccccc2)NC(=O)NC1c1ccc(OC(C)C)cc1 (stereo not drawn)
 : -0.2	4.6%
47	COc1ccc(-c2nnc(SCC(=O)Nc3ccc(C)c(C)c3)s2)cc1
 : 0.0	7.2%
48	CCOC(=O)c1cnc2c(Cl)cc(Cl)cc2c1Nc1cc(C(=O)O)ccc1C
 : 0.6	-5.2%
49	Cc1cc2c(cc1S(=O)(=O)CCC(=O)N1CCCC(C)C1)OCC(=O)N2 (stereo not drawn)
 : 1.8	-0.6%
50	CCOc1ccc(NC(=O)CSc2cc(C)c3ccccc3n2)cc1
 : 2.1	-0.2%

Further results follow.
Order of values – TRPML1 ag	PINK1 modulator
51	COc1ccc(NS(=O)(=O)c2cc3c4c(c2)CC(=O)N4CCC3)cc1Cl
 : 0.6	1.9%
52	Cc1ccc(-n2c(SCCC(C)C)nc3sc4c(c3c2=O)CC(C)(C)OC4)cc1
 : -0.3	4.7%
53	COc1ccc(-c2cccc(NS(=O)(=O)c3cc(C)c(Cl)cc3C)c2)nn1
 : 0.1	2.1%
54	COc1ccc(NC(=O)CN2CCN(c3ccccc3F)CC2)c(OC)c1
 : 0.6	-0.8%
55	O=S(=O)(c1ccc(Cl)cc1)c1nc(-c2cccc(Br)c2)oc1NCc1ccccc1
 : -0.4	1.6%
56	Cc1cc(C)c(/C=C/c2onc(C)c2S(=O)(=O)N2CCC(C(=O)NCC(C)c3ccccc3)CC2)c(C)c1 (stereo not drawn)
 : 1.8	-1.0%
57	COc1ccccc1NC(=O)CCn1c(=O)oc2cc(Cl)ccc21
 : 0.5	-0.6%
58	O=C(CN1C(=O)C2(SCC(=O)N2c2cccc(Cl)c2)c2ccccc21)NCc1ccccc1 (stereo not drawn)
 : 3.0	-4.1%
59	CSc1cccc(NC(=O)C2CCCN(C(=O)c3cnn(-c4ccc(F)cc4)c3-n3cccc3)C2)c1 (stereo not drawn)
 : -0.1	0.9%
60	CCOc1cc(CN2CCN(S(=O)(=O)c3ccc(C)cc3)CC2)ccc1OC
 : -1.0	-0.1%
61	CCOc1ccc(-c2noc(CSc3nnc(Cc4ccccc4)n3-c3cccc(C)c3)n2)cc1
 : 1.2	?
62	CCN(CC)c1nn2c(=O)c(C(=O)NCc3cccc(C)c3)cnc2s1
 : -0.3	0.2%
63	COc1ccc(Cl)cc1NC(=O)CSc1nc2c(oc3ccccc32)c(=O)n1Cc1ccco1
 : -0.4	-0.4%
64	CCCCN(CCCC)S(=O)(=O)c1ccc2oc(C(=O)NCc3ccc(C)cc3)c(C)c2c1
 : 0.4	-0.9%
65	Cc1cccc(CCNC(=O)c2ccc3c(c2)nc2n3CCCCC2)c1
 : 0.6	1.0%
66	Cc1cccc(OCCCC(=O)Nc2sc3c(c2C(N)=O)CCC(C)C3)c1 (stereo not drawn)
 : 2.8	3.2%
67	Cc1ccc2nc(-c3ccc(NC(=O)Cc4ccccc4)cc3)sc2c1
 : 0.2	1.9%
68	Cc1ccc2c(=O)cc(C(=O)Nc3ccc(S(=O)(=O)Nc4nc(C)cc(C)n4)cc3)oc2c1
 : -0.7	-0.3%
69	CC(=O)c1ccc(NC(=O)CSc2nc(=O)n(Cc3ccncc3)c3c2CCC3)cc1
 : -1.0	-0.9%
70	CCOC(=O)c1cc(-c2ccc(C)cc2)n(CC(=O)Nc2ccc(OC)c(Cl)c2)c1C
 : -1.0	4.9%

The list goes on (4 carried over from the part before).
Order of values – TRPML1 ag	PINK1 modulator
67	Cc1ccc2nc(-c3ccc(NC(=O)Cc4ccccc4)cc3)sc2c1
 : 0.2	1.9%
68	Cc1ccc2c(=O)cc(C(=O)Nc3ccc(S(=O)(=O)Nc4nc(C)cc(C)n4)cc3)oc2c1
 : -0.7	-0.3%
69	CC(=O)c1ccc(NC(=O)CSc2nc(=O)n(Cc3ccncc3)c3c2CCC3)cc1
 : -1.0	-0.9%
70	CCOC(=O)c1cc(-c2ccc(C)cc2)n(CC(=O)Nc2ccc(OC)c(Cl)c2)c1C
 : -1.0	4.9%
71	COc1ccc(NC(=O)C2CCCN(C(=O)c3cnn(-c4ccccc4)c3-n3cccc3)C2)cc1 (stereo not drawn)
 : 0.8	1.3%
72	CCCC(=O)OC1=C(C(C)=O)N(Cc2ccccc2)S(=O)(=O)c2ccccc21
 : 2.7	-1.4%
73	CCc1ccc(-n2c(=O)c3ccc(C(=O)NCCc4ccccc4)cc3n(Cc3ccccc3C#N)c2=O)cc1
 : 1.1	-0.4%
74	CN(C)c1ccc(C(=O)Nc2cccc(-c3nc4cccnc4s3)c2)cc1
 : 0.2	3.5%
75	CCOc1ccc(-c2c(C)nn3c(C)c(C(=O)NCCc4ccc(Cl)cc4)cnc23)cc1OCC
 : 2.2	8.2%
76	CCc1ccc(CNC(=O)c2ccc3c(c2)nc2n3CCOC2)cc1
 : 1.1	1.3%
77	CCOC(=O)c1cccc(NC(=O)N2CC(CC)Sc3ccccc32)c1 (stereo not drawn)
 : 0.8	0.9%
78	Oc1cccc2ccc[n+](CC(O)CBr)c12 (stereo not drawn)
 : 0.3	-0.2%
79	COc1ccc(CNC(=O)c2cnc3sc(N4CCCC4)nn3c2=O)c(OC)c1
 : -0.4	2.3%
80	Cc1ccccc1Cn1nnc2sc3c(c2c1=O)CCCC3
 : -0.9	0.4%
81	COc1ccc2oc(=O)c(-c3cn4c(n3)sc3cc(F)ccc34)cc2c1
 : 0.7	0.3%
82	COc1ccc(N2CCN(C(=O)C3CCN(S(=O)(=O)Cc4ccccc4)CC3)CC2)cc1
 : -1.1	1.4%
83	O=C(C1CCC(CNS(=O)(=O)c2ccc(Br)s2)CC1)N1CCN(c2ccccc2Cl)CC1 (stereo not drawn)
 : 1.8	7.9%
84	CCOc1ccc(NC(=O)c2cc3c(s2)-c2ccccc2OC3)cc1
 : -0.1	2.0%
85	O=C(CCS(=O)(=O)c1cc(Br)cc2c1N(C(=O)C1CC1)CC2)N1CCN(c2ccc(F)cc2)CC1
 : -0.5	-2.2%
86	COc1ccc(NC(=O)CSc2cn(CC(=O)N3CCOCC3)c3ccccc23)cc1OC
 : -0.1	3.3%
87	CCc1nn(Cc2cccc(F)c2)c(=O)c2cc3cc(C)ccc3n12
 : -0.8	0.7%
88	CCc1cccc2c(-c3ccccc3)nc(SCC(=O)Nc3ccc(OC)cc3)nc12
 : 0.7	3.7%
89	CCOC(=O)c1noc2ncn(CC(=O)Nc3ccc(OC)c(Cl)c3)c(=O)c12
 : 1.1	0.8%
90	COc1ccccc1-c1noc(-c2ccc(NC3CCCCC3)c([N+](=O)[O-])c2)n1
 : 0.2	0.6%
91	Cn1c(=O)c2c(c3ccccc31)OC(=O)CC2c1ccc(C(F)(F)F)cc1 (stereo not drawn)
 : 0.5	1.9%
92	CCCCc1ccc(C(=O)Nc2ccc3nc(N4CCN(CC)CC4)cc(C)c3c2)cc1
 : -0.6	-0.8%
93	CCCN(Cc1cccs1)C(=O)Nc1ccc(Br)cc1F
 : 0.6	3.4%

Compound profiles, from the list above.
`CCCCc1ccc(C(=O)Nc2ccc3nc(N4CCN(CC)CC4)cc(C)c3c2)cc1` reads TRPML1 ag: -0.6; PINK1 modulator: -0.8%
`Cn1c(=O)c2c(c3ccccc31)OC(=O)CC2c1ccc(C(F)(F)F)cc1` (stereo not drawn) reads TRPML1 ag: 0.5; PINK1 modulator: 1.9%
